DUX4 txn inh – DUX4-mediated transcription inhibition. 293T-iDUX4 ZSCAN4-Gaussia luciferase reporter, 24 h; hits give low values. activity change, negative = inhibition, % (no concentration beside the values). 37,000 compounds, 0.8% hits;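 active means -10% or lower and over 25 points stronger than a control reporter; inconclusive means -10% or lower with a smaller gap; inactive means above -10%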;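 further: 0% = median of neutral control wells and -100% = median of positive control wells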
DUX4 txn inh difference – second read-out of DUX4 txn inh, no call of its own (marks repeat the call); Gaussia minus Italica difference, %; measured here: selective DUX4 reporter inhibition;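 worked out from the two reporters; negative = selective loss of the DUX4 reporter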
DUX4 txn inh control – also measured in DUX4 txn inh; calls as there; activity change, negative = inhibition, %; measured here: Italica tet-on control reporter;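 0 = neutral control and -100 = positive control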
An asterisk follows results filed as active; ? = inconclusive; . = no result given. The list is partial, so the mix of outcomes need not match the whole.

SMILES	DUX4 txn inh	DUX4 txn inh difference	DUX4 txn inh control
O=C(C[C@@H]1C[C@H]2c3cc(NC(=O)C4CCOCC4)ccc3O[C@H]2[C@H](CO)O1)NCc1ccc(Oc2ccccc2)cc1	?	.	.
CO[C@@H](CN(C)S(=O)(=O)c1ccc(C)cc1)[C@H](C)CN([C@H](C)CO)S(=O)(=O)c1cccc(Cl)c1	5	1	4.1
O=C(C[C@@H]1CC[C@@H]2[C@H](COC[C@H](O)CN2S(=O)(=O)c2ccc(F)cc2)O1)NCc1ccc(Cl)c(Cl)c1	-7	5	-12
Cc1cccc(S(=O)(=O)N(C)C[C@H]2OCc3cn(nn3)CCCC(=O)N([C@@H](C)CO)C[C@H]2C)c1	1	-1	2.1
CC(C)NC(=O)N1CCCCN2[C@H](CO)[C@H](c3ccc(C#C[C@@H](C)O)cc3)[C@H]2C1	16	21	-5.3
Cc1ccccc1-c1ccccc1[C@H]1[C@@H](CO)N(C(=O)c2cccc(F)c2)[C@H]1C#N	-9	2	-11
O=C(C[C@H]1C[C@H]2c3cc(NC(=O)Nc4ccc(C(F)(F)F)cc4)ccc3O[C@H]2[C@H](CO)O1)NCC1CC1	-2	3	-5.4
O=C(Nc1ccc(F)cc1)N1CC(=O)N2[C@H](C1)[C@@H](c1ccc(C#CC3CC3)cc1)[C@@H]2CO	-2	-6	4.6
Cc1cc(C(=O)Nc2ccc3c(c2)C(=O)N(C)[C@H]2CC[C@H](CC(=O)NCc4ccc(-c5ccccc5)cc4)O[C@H]2CO3)no1	0	0	-0.8
CN1c2ccc(-c3ccccc3)cc2[C@@H]2[C@@H](CCN2C(=O)c2ccccc2)[C@@H]1CO	7	29	-22
CNC[C@@H]1Oc2ccc(NC(=O)Cc3cn(C)c4ccccc34)cc2C(=O)N([C@@H](C)CO)C[C@H]1C	6	5	1.9
COc1ccccc1CN1CC[C@@H]2[C@H](CO)Nc3ccc(-c4cccc(C(=O)N(C)C)c4)cc3[C@@H]21	-2	1	-3.2
CN(C)CC#Cc1ccc([C@H]2[C@@H](CO)N3CCCCN(C(=O)CN(C)C)C[C@@H]23)cc1	10	-2	12
O=C(C[C@@H]1C[C@@H]2c3cc(NC(=O)Cc4ccncc4)ccc3O[C@@H]2[C@H](CO)O1)NCc1ccc2c(c1)OCO2	10	11	-1.3
CN1CCN(C(=O)C[C@@H]2CC[C@H]3[C@@H](COc4ccc(NC(=O)c5cccs5)cc4C(=O)N3C)O2)CC1	2	1	1.0
COc1ccc(C(=O)N2C[C@H]3[C@@H](c4ccccc42)[C@@H](CO)N3Cc2ccc3c(c2)OCO3)cc1	1	-2	2.8
CCNC(=O)[C@@H]1[C@@H](CO)[C@@H]2Cn3c(ccc(-c4cccc(OC)c4)c3=O)[C@@H]2N1Cc1nccs1	12	10	2.4
CCCNC(=O)N[C@@H]1C=C[C@H](CC(=O)NCCc2ccccc2)O[C@@H]1CO	5	8	-3.6
COC(=O)C[C@H]1CC[C@H]2[C@@H](COc3ccc(NC(=O)c4ccc(OC)cc4)cc3C(=O)N2C)O1	-3	0	-2.7
CN(C)C(=O)C[C@H]1CC[C@@H](NC(=O)C2CCOCC2)[C@H](CO)O1	0	-1	1.5
O=C(C[C@@H]1CC[C@@H]2[C@H](COC[C@H](O)CN2S(=O)(=O)c2cccc(Cl)c2)O1)NC1Cc2ccccc2C1	3	0	3.1
COCC#Cc1ccc2c(c1)O[C@H](CN(C)Cc1ccccc1F)[C@@H](C)CN([C@H](C)CO)S2(=O)=O	7	1	5.6
CC(C)(C)[S@](=O)N1Cc2cc(C(=O)NCc3ccncc3)nc(-c3cccc(-c4ccc(C#N)cc4)c3)c2[C@@H]1CCO	-2	0	-2.0
CCCN1C[C@H](C)[C@H](OC)CN(C)C(=O)c2ccc(NC(=O)C3CCOCC3)cc2OC[C@H]1C	6	2	3.8
CN(C)C(=O)C[C@H]1C[C@H]2c3cc(NC(=O)C4CCOCC4)ccc3O[C@H]2[C@H](CO)O1	4	9	-4.6
O=C(C[C@@H]1CC[C@@H]2[C@H](COC[C@H](O)CN2C(=O)c2ccc(F)cc2)O1)Nc1nccs1	10	18	-7.9
O=C(C[C@@H]1CC[C@@H]2[C@H](COC[C@H](O)CN2S(=O)(=O)c2ccccc2)O1)N1CCOCC1	-1	-4	2.9
CC(C)N(C[C@H]1N[C@H](CO)[C@@H]1c1ccc(C2=CCCCC2)cc1)C(=O)CN(C)C	3	0	2.8
CNC[C@@H]1Oc2ccc(NC(=O)c3ccncc3)cc2CC(=O)N([C@@H](C)CO)C[C@@H]1C	3	3	-0.2
COc1ccc(S(=O)(=O)Nc2ccc3c(c2)C(=O)N([C@@H](C)CO)C[C@@H](C)[C@H](CN(C)Cc2ccc(C(F)(F)F)cc2)OCCCC[C@H](C)O3)cc1	-1	-3	2.3
CCCNC(=O)N1C[C@@H]2[C@H](c3ccccc31)[C@H](CO)N2Cc1ccc(OC)cc1	1	0	1.1
CC(=O)N1[C@H](CN(C)C(=O)CN2CCOCC2)[C@@H](c2ccccc2)[C@@H]1CO	2	5	-2.9
CN(C)C(=O)c1ccc(-c2ccc3c(c2)[C@H]2[C@H](CCN2C(=O)c2ccccn2)[C@H](CO)N3C)cc1	9	2	6.9
COCC(=O)N1CCC2(CC1)CN(C(=O)Cc1ccccc1)[C@H](CO)c1c2c2ccc(OC)cc2n1C	21	16	4.9
O=C(C[C@H]1C=C[C@H](NC(=O)c2cccc(F)c2)[C@H](CO)O1)Nc1nccs1	5	4	1.1
CCS(=O)(=O)N1CC2(CN(Cc3ccccc3OC)[C@@H](CO)c3c2c2ccc(OC)cc2n3C)C1	1	7	-5.5
O=C(C[C@@H]1CC[C@H]2[C@@H](COC[C@@H](O)CN2C(=O)Nc2ccc(F)cc2)O1)NCCc1ccccc1	0	-7	7.4
CCNC(=O)C[C@@H]1CC[C@@H]2[C@H](COC[C@@H](O)CN2C(=O)c2cc(Cl)cc(Cl)c2)O1	8	7	1.2
O=C(O)C[C@@H]1C=C[C@@H](NC(=O)Nc2cc(F)ccc2F)[C@@H](CO)O1	3	1	2.4
C[C@@H]1CN([C@H](C)CO)C(=O)Cc2cc(NS(=O)(=O)c3cccs3)ccc2O[C@@H]1CN(C)Cc1ccc(-c2ccccc2)cc1	-3	-3	-0.2

Limited to DUX4 txn inh difference and DUX4 txn inh (3 entries from above):
| canonical_smiles | DUX4 txn inh difference | DUX4 txn inh |
| --- | --- | --- |
| CCCNC(=O)N1C[C@@H]2[C@H](c3ccccc31)[C@H](CO)N2Cc1ccc(OC)cc1 | 0 | 1 |
| CC(=O)N1[C@H](CN(C)C(=O)CN2CCOCC2)[C@@H](c2ccccc2)[C@@H]1CO | 5 | 2 |
| CN(C)C(=O)c1ccc(-c2ccc3c(c2)[C@H]2[C@H](CCN2C(=O)c2ccccn2)[C@H](CO)N3C)cc1 | 2 | 9 |

(next part)
SMILES	DUX4 txn inh	DUX4 txn inh difference	DUX4 txn inh control
CCNC(=O)C[C@H]1CC[C@@H]2[C@@H](COc3ccc(NC(=O)C4CCCCC4)cc3C(=O)N2C)O1	0	1	-1.0
C[C@H](CO)N1C[C@H](C)[C@H](CN(C)S(=O)(=O)c2cn(C)cn2)Oc2ncc(C3=CCCCC3)cc2C1=O	-1	-1	0.0
COC(=O)C[C@@H]1CC[C@@H]2[C@@H](COc3ccc(NC(=O)Nc4cccc(F)c4)cc3C(=O)N2C)O1	0	0	0.1
COc1ccccc1-c1ccc2n(c1=O)C[C@H]1[C@H](CO)[C@@H](C(=O)NC3CCC3)N(C(=O)NC(C)C)[C@@H]21	-7	-8	1.1
CCCNC(=O)[C@H]1[C@H](CO)[C@H]2Cn3c(ccc(-c4cccc(OC)c4)c3=O)[C@@H]1N2C(=O)NCCC	11	4	7.2
CO[C@H](C(=O)N(C)C[C@H]1OCc2ccccc2-c2c(n(C)c3ccccc23)C(=O)N([C@@H](C)CO)C[C@H]1C)c1ccccc1	1	0	1.8
O=C(C[C@H]1CC[C@H]2[C@@H](COC[C@@H](O)CN2C(=O)c2ccncc2)O1)Nc1ccc(-c2ccccc2)cc1	10	12	-1.4
O=C(C[C@H]1C[C@@H]2c3cc(NC(=O)NC4CCCCC4)ccc3O[C@@H]2[C@@H](CO)O1)NCc1ccccn1	5	6	-1.6
CCCC#Cc1ccc([C@@H]2[C@@H](CO)N3C(=O)CN(C(=O)Cc4cccnc4)C[C@H]23)cc1	4	-2	5.4
CCCN1[C@@H]2c3ccc(C4=CCCCC4)c(=O)n3C[C@H]1[C@H](CO)[C@H]2C(=O)NCCOC	4	8	-4.0
CNC(=O)C[C@H]1CC[C@H]2[C@@H](COc3ccc(NC(=O)NC(C)C)cc3C(=O)N2C)O1	-1	-4	3.3
CC(C)NC(=O)N[C@H]1C=C[C@@H](CC(=O)NCc2ccc(Oc3ccccc3)cc2)O[C@H]1CO	-6	-1	-4.2
O=C(NC1CCCC1)[C@H]1[C@H](CO)[C@H]2Cn3c(ccc(C4=CCCCC4)c3=O)[C@@H]1N2CC1CC1	-4	-2	-1.8
O=C(Nc1cc(F)ccc1F)N1C[C@@H]2[C@H](c3ccccc31)[C@@H](CO)N2C(=O)c1ccccc1	-1	-3	1.4
CCNC(=O)[C@@H]1[C@@H](CO)[C@@H]2Cn3c(ccc(-c4ccccc4)c3=O)[C@@H]2N1Cc1ccccc1	-6	-8	2.2
COc1ccc2c3c([nH]c2c1)[C@H](CO)N(C(=O)Nc1ccc(F)cc1)CC31CCN(C(=O)Nc2ccccc2)CC1	?	.	.
CC(C)CC#Cc1ccc([C@@H]2[C@@H](CO)N3C(=O)CN(C(=O)c4ccc5c(c4)OCO5)C[C@H]23)cc1	?	.	.
O=C(C[C@@H]1CC[C@@H]2[C@H](COC[C@@H](O)CN2Cc2cccc(F)c2)O1)NCC1CCCCC1	-3	-1	-1.5
COc1ccccc1S(=O)(=O)N(C)C[C@@H]1OCc2cnnn2CCCC(=O)N([C@@H](C)CO)C[C@H]1C	3	-3	5.9
CO[C@@H]1CN(C)C(=O)c2ccc(NC(=O)c3cccc(F)c3)cc2OC[C@@H](C)NC[C@H]1C	7	5	2.2
O=C(C[C@@H]1CC[C@H]2[C@@H](COC[C@@H](O)CN2Cc2cccc(Cl)c2)O1)NCC1CCCCC1	?	.	.
CC(C)C#Cc1ccc([C@@H]2[C@H]3CN(C(=O)Cc4cccnc4)CC(=O)N3[C@H]2CO)cc1	12	-8	20
COc1ccc(CN2C[C@H](O)COC[C@@H]3O[C@H](CC(=O)NCc4ccncn4)CC[C@H]32)cc1	2	0	2.6
COc1ccc(NC(=O)N(C)C[C@@H]2Oc3ncc(-c4cccnc4)cc3C(=O)N([C@@H](C)CO)C[C@H]2C)cc1	-1	0	-0.5
O=C(CC1CC1)Nc1ccc2c(c1)[C@@H]1C[C@@H](CC(=O)NC3CCCCC3)O[C@@H](CO)[C@@H]1O2	?	.	.
CC(C)[C@H]1COCn2nncc2CC[C@H](C)C(=O)N1	2	3	-0.6
CCC(=O)N1CC2(CCN(Cc3ccc(Cl)cc3)CC2)c2c([nH]c3cc(OC)ccc23)[C@@H]1CO	?	.	.
COCC#Cc1ccc([C@@H]2[C@@H](CO)N3CCCCN(C(=O)CN(C)C)C[C@@H]23)cc1	25	18	7.1
C/C=C/c1ccc([C@H]2[C@@H](CO)N(S(C)(=O)=O)[C@@H]2CN(C(C)=O)C(C)C)cc1	6	6	0.0
COc1ccc2c3c(n(C)c2c1)[C@@H](CO)N(C(=O)c1ccncc1)CC31CN(C(C)=O)C1	24	8	16
COC(=O)C[C@@H]1C[C@@H]2c3cc(NC(=O)NC4CCCCC4)ccc3O[C@@H]2[C@H](CO)O1	10	12	-1.6
CO[C@@H]1CN(C)C(=O)c2ccc(NC(=O)NC(C)C)cc2OC[C@H](C)N(Cc2ccccn2)C[C@H]1C	-2	3	-4.9
CN(C)C(=O)[C@@H]1N[C@@H]2c3ccc(-c4ccc(F)cc4)c(=O)n3C[C@@H]2[C@H]1CO	7	7	0.4
CN(C)C(=O)c1cccc(-c2ccc3c(c2)[C@@H]2[C@@H](CCN2C(=O)c2cccnc2)[C@H](CO)N3)c1	16	8	8.8
COc1cccc(C#Cc2ccc3c(c2)O[C@@H](CN(C)C(=O)CN2CCOCC2)[C@H](C)CN([C@@H](C)CO)S3(=O)=O)c1	-1	0	-0.1

Some of the entries above in another layout:
> CN(C)C(=O)[C@@H]1N[C@@H]2c3ccc(-c4ccc(F)cc4)c(=O)n3C[C@@H]2[C@H]1CO
  DUX4 txn inh: 7
  DUX4 txn inh difference: 7
  DUX4 txn inh control: 0.4

> CN(C)C(=O)c1cccc(-c2ccc3c(c2)[C@@H]2[C@@H](CCN2C(=O)c2cccnc2)[C@H](CO)N3)c1
  DUX4 txn inh: 16
  DUX4 txn inh difference: 8
  DUX4 txn inh control: 8.8

> CCC(=O)N1CC2(CCN(Cc3ccc(Cl)cc3)CC2)c2c([nH]c3cc(OC)ccc23)[C@@H]1CO
  DUX4 txn inh: ?
  DUX4 txn inh difference: .
  DUX4 txn inh control: .

Rewritten as a markdown table: entries from further up
| canonical_smiles | DUX4 txn inh | DUX4 txn inh difference | DUX4 txn inh control |
| --- | --- | --- | --- |
| O=C(C[C@@H]1CC[C@H]2[C@@H](COC[C@@H](O)CN2Cc2cccc(Cl)c2)O1)NCC1CCCCC1 | ? | . | . |
| CC(C)C#Cc1ccc([C@@H]2[C@H]3CN(C(=O)Cc4cccnc4)CC(=O)N3[C@H]2CO)cc1 | 12 | -8 | 20 |
